High-throughput results from PubChem.
VDR inh: blocks the human vitamin D receptor; Potency, µM, for the others: max response, negative = inhibition, hits mostly inhibitors; AID 504847; 400,000 tested, 0.93% active; VDR-SRC2-3 peptide fluorescence polarization, 2 h; active = well fitted inhibition curve with a large enough effect; inconclusive = small, poorly fitted or top-dose-only effect, or another doubt; inactive = no such curve, though single readings can be large or run the other way; also: series mostly up to about 120 µM
Target sequence (P11473 whole entry, looked up): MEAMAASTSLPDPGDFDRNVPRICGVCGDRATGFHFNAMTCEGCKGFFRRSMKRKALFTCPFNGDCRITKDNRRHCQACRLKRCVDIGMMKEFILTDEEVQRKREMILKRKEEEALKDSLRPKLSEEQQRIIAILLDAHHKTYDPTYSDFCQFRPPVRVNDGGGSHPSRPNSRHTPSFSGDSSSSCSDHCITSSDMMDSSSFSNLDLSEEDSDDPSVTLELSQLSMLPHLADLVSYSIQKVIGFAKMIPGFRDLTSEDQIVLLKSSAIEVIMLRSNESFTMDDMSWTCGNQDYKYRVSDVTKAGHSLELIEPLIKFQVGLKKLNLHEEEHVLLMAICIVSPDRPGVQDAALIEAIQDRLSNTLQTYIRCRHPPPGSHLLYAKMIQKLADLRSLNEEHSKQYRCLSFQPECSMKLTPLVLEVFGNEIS
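Measured by FP: displacement of SRC2-3 coactivator peptide from VDR by library compounds, following a two-hour ambient incubation.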
Active calls of the source: *; ? = inconclusive; & = joins results of further samples. % is scaled to controls: 0 for no effect and ±100 for the full control effect; potency is read from the fitted curve at half-maximal effect. Some of the compounds tested, so the mix of outcomes need not match the whole.

VDR inh | SMILES
-20% | O=C(NCCCN1CCCC1=O)c1ccc2c(c1)NC(=O)C(N1CCOCC1)S2 (configuration not stated)
3% | Cc1cccc(C(=O)NC(=S)NNC(=O)COc2ccc(Cl)cc2)c1
20% | CCOC(=O)Cn1c(=O)n(CC2CCCO2)c2nc(-c3cccc(C)c3)nc(C(N)=O)c21 (configuration not stated)
-2% | Cc1cc(C(=O)NCc2ccccc2)c2c(C)nn(-c3cccc(F)c3)c2n1
-1% | Cc1ccc(C2(C)NC(=O)N(CC(=O)Nc3ccc4[nH]c(=O)[nH]c4c3)C2=O)cc1 (configuration not stated)
-1% | CCOc1cc2[nH]c(=O)n(CCc3ccc(OC)c(OC)c3)c(=O)c2cc1OCC
-8% | CCOP(=O)(OCC)C(NC(=O)Nc1ccc(Cl)cc1)C(N)=O (configuration not stated)
-5% | COc1ccccc1/C=N/NC(=O)Cn1cnc([N+](=O)[O-])n1
? | CN(C)CCCN(C(=O)CCOc1ccccc1)c1nc2c(F)cccc2s1
0% | Cc1cccc(-c2nnc(SCC(=O)Nc3cc(C)on3)n2C)c1
14% | Cc1ccc(-c2cc(C(F)F)nc3sc4c(=O)[nH]cnc4c23)cc1
-7% | CCc1ccccc1NC(=O)CCS(=O)(=O)c1ccc2c(c1)CCCN2C(C)=O
-15% | CN1C(C(=O)c2ccccc2)=C(OC(=O)c2ccc(Br)cc2)c2ccccc2S1(=O)=O
3% | Cc1cccc(N2C(=O)CN(Cc3cccs3)C2=S)c1
3% | CC(O)Cn1nc([N+](=O)[O-])nc1N (configuration not stated)
-19% | CC(OC(=O)CCc1nc2ccccc2c(=O)[nH]1)C(=O)c1ccc(Br)cc1 (configuration not stated)
-8% | c1ccc(Nc2cc(-c3ccccc3)nc3ncnn23)cc1
-8% | CSc1ccccc1NC(=O)CN(C)C(C)C(=O)NC(=O)NC1CCCCC1 (configuration not stated)
28µM* | Brc1cc2c(cc1Br)OCCOCCOCCOCCO2
-25% | CCOc1ccc(/C=N/NC(=O)c2cc(-c3ccccc3)nc3ccccc23)cc1O
-18% | Cn1cnc(C(=O)N2CCN(C(=O)OC(C)(C)C)CC2)c1C(=O)N1CCN(C(=O)OC(C)(C)C)CC1
-10% | O=C(CNC(=O)c1ccccc1)N/N=C/c1ccc([N+](=O)[O-])o1
-8% | CCOC(=O)c1cc2c(ccn2C)n1Cc1ccccc1C
-4% | O=C(Nc1cnccn1)c1cccc(C(F)(F)F)c1
-3% | O=C(Cn1cc(F)c(=O)[nH]c1=O)NCCO
-4% | O=C(NCC1CCCN(C(=O)c2cccnc2)C1)c1ccc(-c2ccccc2)cc1 (configuration not stated)
-6% | COCCNC(=O)/C(C#N)=C/c1ccc(SC)cc1
-4% | CCCN1Cc2cccc(C(=O)Nc3ccc(OC)cc3OC)c2C1=O
5% | CCOc1ccccc1NC(=O)C(=O)c1cc(C)n(-c2cccc(C)c2C)c1C
-28% | CC(C)[C@H](NC(=O)N1c2ccccc2NC(=O)[C@@H]1C(C)C)C(=O)N[C@H](C(=O)O)c1ccccc1
-1% | COC(=O)CSc1nc2sc(C)c(C)c2c(=O)n1C
-7% | CCOC(=O)c1cc(NC(=O)COc2ccc([N+](=O)[O-])cc2)cc(C(=O)OCC)c1
-17% | COc1ccc(CNc2ncnc3cc(Cl)ccc23)cc1
3% | C=CCO/N=C(/C)c1c(O)c(CC)c(-c2ccccc2)n(-c2ccccc2)c1=O
-6% | CC1(c2ccccc2)NC(=S)N2C1NC(=S)N2c1ccccc1 (configuration not stated)
-19% | CCC(C(=O)NC1CCCC1)N(C(=O)c1snc(C(N)=O)c1N)c1ccc(C)cc1C (configuration not stated)
1% | Cc1[nH]nc(Nc2ccccc2)c1[N+](=O)[O-]
-13% | CNC(=O)CN(c1ccc(Oc2ccccc2)cc1)S(=O)(=O)c1ccc(C)cc1
0% | C=CCSC1=NN2CCS(=O)(=O)N=C2S1
-7% | Cc1oc(-c2ccccc2F)nc1CS(=O)(=O)CC(=O)NCCCN1CCN(C)CC1
5% | COCCN(CC(=O)Nc1cccc(C)c1C)C(=O)Cc1cccs1
8% | COc1ccc(Br)cc1Cn1nnc(C(=O)Nc2ccc3c(c2)OCCO3)c1N
-2% | O=C(CNC(=O)c1cccs1)N/N=C/c1c[nH]c2ccccc12
-12% | COc1ccccc1-c1c(C)c(C)nc(N)c1C#N
-11% | CC(=O)Oc1c2occc2cc2ccc(=O)oc12
-17% | Cc1nn(Cc2ccccc2Cl)c(Cl)c1/C=C/C(=O)OCC(=O)NC(N)=O
3% | O=C(c1ccccc1)N1CC(COc2ccccc2)OC(c2cccnc2)O1 (configuration not stated)
-2% | O=C(Nc1nc(-c2cccs2)c(C(=O)C(F)(F)F)s1)c1ccccc1
5% | Cc1ccc(CNC(=O)N2CCC(CN3CCC(C)CC3)CC2)cc1
11% | O=c1c2oc3ccccc3c2[nH]c(=S)n1-c1ccc(F)cc1
-7% | CCCNCc1cc(OC)c(OCc2ccccc2)cc1Br
14% | O=S(=O)(Nc1cc(F)ccc1F)c1ccc2[nH]c3c(c2c1)CCCC3
10% | O=C(NCCc1ccncc1)Nc1ccccc1
-8% | Nc1nc(CN2CCN(Cc3ccccc3)CC2)nc(Nc2ccccc2)n1
-11% | CSc1ccc(Cl)c(C(=O)OCC(=O)N2CCNC2=O)c1
-20% | C=CCn1c(COc2cccc(C)c2)nnc1SCC(=O)c1c(N)n(C)c(=O)n(C)c1=O
-5%&-4% | C[C@@H]1C(c2ccc(F)cc2)=NN(c2ccc(Br)cc2)[C@H]1C(=O)N1CCOC1=O
-15% | COc1cccc(/C=C/C(=O)N2CCN(c3ccccn3)CC2)c1
-9% | CCC(C(=O)c1ccc2ncccc2c1)c1ccccc1 (configuration not stated)
-8% | COC(=O)c1nnn(CC(=O)Nc2cccc(Cl)c2C)c1C(=O)OC

Rewritten as labelled records: entries from further up.
Cc1[nH]nc(Nc2ccccc2)c1[N+](=O)[O-]
  VDR inh = 1%

CCOc1cc2[nH]c(=O)n(CCc3ccc(OC)c(OC)c3)c(=O)c2cc1OCC
  VDR inh = -1%

The listing continues.
VDR inh | SMILES
13% | Cn1c(=O)n(C)c2cc(CNCc3ccccc3)ccc21
-4% | FC(F)(F)c1ccccc1-c1nc(N2CCNCC2)c2ccccc2n1
-4%&0%&-8% | CCC(=O)c1ccc2c(c1)N(CCCN(C)C)c1ccccc1S2
9% | Cc1ccc(-c2noc(CN(C(=O)C34CC5CC(CC(C5)C3)C4)C(C)C)n2)cc1
12% | CCc1nnc(SCC(=O)Nc2ccccc2)nc1CC
6% | O=C(Nc1nnc(SCC(=O)N2CCCCC2)s1)c1cccs1
4% | Cc1ccc2c(c1)-c1onc(C(=O)N3CCN(c4cc(Cl)ccc4C)CC3)c1CO2
7% | Cc1cccc(N(C)C(=O)c2cc3cc4ccc(C)cc4nc3o2)c1
-1% | Cc1ccc(NC(=O)c2ccc(S(=O)(=O)N3CCCCC3)cc2)nc1
-8% | COc1ccc(C(CC(=O)Nc2ccc(C)cn2)N2Cc3ccccc3C2=O)cc1 (configuration not stated)
-8% | CC(=O)c1cccc(NC(=O)c2ccc(N(Cc3ccccc3)S(C)(=O)=O)cc2)c1
12% | COc1cccc(N(C(=O)CNC(=O)c2ccco2)C(C(=O)NC2CCCC2)c2ccncc2)c1 (configuration not stated)
-3% | CN(CCCN1CCOCC1)C(=O)c1cc(COc2c(F)cccc2F)on1
-4% | CCn1c(SCC(N)=O)nnc1-c1ccc2[nH]c(C)c(C)c2c1
8% | Cn1c(=O)c2c(nc(NCCCO)n2Cc2cccc(C(F)(F)F)c2)n(C)c1=O
21% | Cc1cccc(/C=N/NC(=O)c2cccc(NC(=O)c3ccccc3)c2)n1
-4% | Cc1ccc(OCC(=O)N/N=C/c2cccnc2)cc1C
-8% | S=C(Nc1cccc(Br)c1)N1CCn2cccc2C1c1cccnc1 (configuration not stated)
2% | CCN(CC)S(=O)(=O)c1ccc(C(=O)NCCSc2c(-c3ccc(F)cc3)[nH]c3ccccc23)cc1
-24% | CSc1cccc(NS(=O)(=O)c2ccc3[nH]cc(C(=O)N4CCCCCC4)c(=O)c3c2)c1
3% | Cc1cc(NS(=O)(=O)c2ccccc2)ccc1NS(=O)(=O)c1ccccc1
-22% | CN(C)c1ccc(NC2=C(Cl)C(=O)c3ccccc3C2=O)cc1
-4% | CC(=O)N1c2ccc(S(=O)(=O)NCCC(=O)NCCc3ccc(Cl)cc3)cc2CC1C (configuration not stated)
-11% | O=C(NCC(c1ccco1)N1CCc2ccccc2C1)c1ccc([N+](=O)[O-])cc1 (configuration not stated)
-7% | COc1ccc(OC)c(NC(=O)C2CC(/C=C/c3ccccc3)=NO2)c1 (configuration not stated)
0% | O/N=C(\c1ccc(Cl)cc1)c1ncc(C(F)(F)F)cc1Cl
-11% | CSc1nnc(-c2ccccc2)o1
-3% | O=C(NCc1cccnc1)c1ccc(-c2cccc(Cl)c2Cl)o1
-1% | CC1CCN(CCCNC(=O)c2ccc(CSCc3cccc(Cl)c3)o2)CC1
28% | CC(C)C(=O)NNC(=O)CC(=O)Nc1ccccc1C(=O)O

Arranged by value in VDR inh (largest number first): six from the list above.
| canonical_smiles | VDR inh |
| --- | --- |
| COc1cccc(N(C(=O)CNC(=O)c2ccco2)C(C(=O)NC2CCCC2)c2ccncc2)c1 (configuration not stated) | 12% |
| Cc1ccc(-c2noc(CN(C(=O)C34CC5CC(CC(C5)C3)C4)C(C)C)n2)cc1 | 9% |
| Cn1c(=O)c2c(nc(NCCCO)n2Cc2cccc(C(F)(F)F)c2)n(C)c1=O | 8% |
| Cc1cccc(N(C)C(=O)c2cc3cc4ccc(C)cc4nc3o2)c1 | 7% |
| CN(CCCN1CCOCC1)C(=O)c1cc(COc2c(F)cccc2F)on1 | -3% |
| S=C(Nc1cccc(Br)c1)N1CCn2cccc2C1c1cccnc1 (configuration not stated) | -8% |

Quoted from the listing.
Result of `O/N=C(\c1ccc(Cl)cc1)c1ncc(C(F)(F)F)cc1Cl` under VDR inh: 0%
Result of `CCc1nnc(SCC(=O)Nc2ccccc2)nc1CC` under VDR inh: 12%
Result of `S=C(Nc1cccc(Br)c1)N1CCn2cccc2C1c1cccnc1` (configuration not stated) under VDR inh: -8%
Result of `CCC(=O)c1ccc2c(c1)N(CCCN(C)C)c1ccccc1S2` under VDR inh: -4%&0%&-8%

(next part)
VDR inh | SMILES
9% | CNC(=O)c1c(NC(=O)CCS(=O)(=O)c2ccc(C)cc2)sc(C)c1C
40µM* | Fc1ccc(Nc2ccnc(-c3ccc4c(c3)OCO4)n2)cc1
-8% | CCCCN(C(=O)c1ccco1)c1c(N)n(CCC)c(=O)[nH]c1=O
-20% | COc1ccc(NC(=O)c2noc3c2CCCCC3)cc1
13% | CC[C@]1(C(=O)OC)[C@H]2C(=O)N(C)C(=O)[C@H]2[C@H]2CN=C(SC)N21
-5% | c1ccc2c(c1)[nH]c1c(N3CCCC3)ncnc12
-11% | Cc1ccc(C)c(NC(=O)c2cnn(-c3ccccc3)c2C)c1
2% | Cc1nn(Cc2ccccc2)c(C)c1NC(=O)c1cc(-c2cccs2)on1
0% | COc1ccc(Cl)cc1-n1nnc(-c2nc(-c3ccc4c(c3)OCO4)no2)c1C
-9% | Cn1c(N)c(C(=O)c2cc(-c3ccccc3)nc3ccccc23)c(=O)n(C)c1=O
-22% | COc1cc(OC)cc(C(=O)N[C@H](C(=O)OCC(=O)NC(=O)NC(C)(C)C)C(C)C)c1
5% | O=C(Nc1ccc(C(F)(F)F)cc1)C1(c2ccccc2)CC1
21% | O=C(C1CC(=O)N(c2ccc3c(c2)OCCO3)C1)N1CCN(c2cccc(C(F)(F)F)c2)CC1 (configuration not stated)
4% | CCN1C(=O)/C(=C\N2CCN(c3ccc(F)cc3)CC2)SC1=S
2% | COC(=O)CCC(=O)Nc1ccccc1C(N)=O
10% | CCOC(=O)c1nn(-c2ccc(C)cc2)c2nc(Nc3ccccc3)cc(=O)n12
12% | Cc1cccc(CN2CCN(C(=O)c3ccccc3F)CC2)c1
0% | OCC1(CCc2ccccc2)CCN(Cc2cc(Cl)ccc2O)CC1
-5% | COC(=O)c1ccccc1NC(=O)COc1ccc2c(c1)OCO2
15% | O=c1n(-c2ccccc2)c(=O)n2n1CC(O)C2
-9% | COc1ccc(S(=O)(=O)N(CC(=O)NCC2CCCO2)c2ccccc2)cc1OC (configuration not stated)
7% | Cc1cc2c(N=NC(=O)CCc3ccccc3)c(O)[nH]c2cc1Br
0% | CCn1c(SCC(=O)N/N=C/c2ccc(C)o2)nnc1-c1ccccc1
12% | O=C(NCCCN=C1NS(=O)(=O)c2ccccc21)c1ccncc1
? | Cc1cc(C2C(C#N)=C(N)SC(N)=C2C#N)c(C)s1
7% | CCN1CCc2c(sc(NC(=O)COc3ccccc3)c2C(=O)OC)C1
? | O=S(=O)(c1ccccc1Br)N1CCN(c2ncccn2)CC1
7% | CNC(=O)c1cnc2sc(N3CCCCCC3)nn2c1=O
6% | CS(=O)(=O)N(CC(=O)NCCSCc1cccc(Cl)c1)c1ccc2c(c1)OCO2
-8% | CCC(Sc1nc2nccnc2c(=O)n1Cc1ccccc1Cl)C(=O)NC1CCCCC1 (configuration not stated)
10% | O=C(NCc1cccc(Cl)c1)c1ccc2c(c1)nc1n2CCOC1
2% | O=C(c1cc(-c2ccccn2)nc2c(Cl)cccc12)N1CCN(S(=O)(=O)c2ccccc2)CC1
-12% | CC(C)=C(NC(=O)c1ccccc1)C(=O)NCCc1nc2ccccc2[nH]1
9% | O=C(COC(=O)Cc1ccc(Br)cc1)Nc1ccc(Cl)cn1
